Screening data from PubChem.
miR-21 reporter – raises the signal of a miR-21 reporter. HeLa miR-21 FLuc reporter, luciferase, 48 h. Potency, µM (top dose mostly 38.3 µM), for the others: top-dose reporter change, positive = more light. 340,000 tested, under 10 active. AID 2288; active = well fitted rising curve with a large enough effect; inconclusive = small, poorly fitted or top-dose-only effect; inactive = no such curve, though single readings can be large or run the other way;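 also: % of control where 0% means no effect; miR-21 action dims this reporter so a rising signal means less miR-21 action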
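HeLa cells endogenously expressing miR-21, stably carrying CMV-driven firefly luciferase with a downstream miR-21 binding site, 2000 cells/well. Titrations up to approximately 40 uM, 48 hours; luciferase luminescence read.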
Rango complex inh – inhibitors of Rango-importin beta complex formation. AID 540263. Potency, µM (top dose mostly 92.2 µM), without a hit: top-dose inhibition of complex formation. actives 0.031% (n = 340,000). Rango CFP/YFP FRET sensor + importin beta, 45 min. Q14974; active = rising FRET ratio curve, often small or poorly fitted; inconclusive = mostly compound fluorescence or quenching in the first reads; inactive = flat curves in all reads;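 also: potency is read from the fitted curve at half-maximal effect; 0% = DMSO wells and 100% = buffer wells lacking importin beta; nearly all actives have a fitted effect of over 15% in size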
Target sequence (Q14974 whole entry, looked up): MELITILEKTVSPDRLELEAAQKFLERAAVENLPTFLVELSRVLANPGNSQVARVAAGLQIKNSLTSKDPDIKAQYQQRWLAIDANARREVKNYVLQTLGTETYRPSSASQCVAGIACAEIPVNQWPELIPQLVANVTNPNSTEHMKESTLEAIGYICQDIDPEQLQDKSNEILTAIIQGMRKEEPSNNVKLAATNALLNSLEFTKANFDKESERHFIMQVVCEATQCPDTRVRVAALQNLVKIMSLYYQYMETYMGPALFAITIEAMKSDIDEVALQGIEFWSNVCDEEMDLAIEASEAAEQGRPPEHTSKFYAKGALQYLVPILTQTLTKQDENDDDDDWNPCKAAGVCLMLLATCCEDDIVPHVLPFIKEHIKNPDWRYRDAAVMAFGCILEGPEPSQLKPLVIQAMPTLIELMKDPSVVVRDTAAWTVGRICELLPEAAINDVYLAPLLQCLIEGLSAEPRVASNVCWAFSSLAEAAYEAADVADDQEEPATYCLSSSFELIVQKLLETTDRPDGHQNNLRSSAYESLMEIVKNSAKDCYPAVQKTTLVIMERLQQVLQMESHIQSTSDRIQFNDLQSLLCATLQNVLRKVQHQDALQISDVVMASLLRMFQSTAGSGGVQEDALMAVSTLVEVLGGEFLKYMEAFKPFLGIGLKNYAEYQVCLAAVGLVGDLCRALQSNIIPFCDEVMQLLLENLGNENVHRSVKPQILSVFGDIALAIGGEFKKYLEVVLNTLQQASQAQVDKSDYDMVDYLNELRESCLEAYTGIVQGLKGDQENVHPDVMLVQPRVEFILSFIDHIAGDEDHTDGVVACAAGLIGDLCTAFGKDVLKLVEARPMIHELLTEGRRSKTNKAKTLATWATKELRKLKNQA
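FRET biosensor (snurportin 1 IBB flanked by EYFP and cerulean), 50 nM, with compound 5 min, then 0.125 microM importin beta in PBS, 1 mM DTT, 0.02% Tween-20, 0.1% BSA. CFP/YFP ratio read after 45 min at room temperature; pre-read flags interference.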
GLA inh pH 4.5 – blocks human alpha-galactosidase A at pH 4.5; P06280; AID 1467; 230,000 tested, under 10 active; activity change, negative = inhibition, % at 105 µM; purified enzyme, 4-MU-alpha-Gal fluorescence, pH 4.5; inconclusive = small, poorly fitted or top-dose-only inhibition, or a rising curve; inactive = flat fitted curve, though single readings scatter; no compound was filed as active;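 also: 0% = full activity with enzyme and -100% = basal without enzyme; dose as in the result columns while the protocol names 77 µM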
Rango release inh – inhibitors of RanGTP-induced Rango-importin beta complex dissociation. actives 0.071% (n = 340,000). Potency, µM (top dose mostly 46.1 µM), inactives show at the highest dose activity change, negative = inhibition. AID 540253. Biochemical FRET Rango-importin beta, RanGTP-induced dissociation; active means falling FRET ratio curve, often poorly fitted, with flat reads before Ran was added; inconclusive means other falling curves, or compound fluorescence or quenching; inactive means flat or rising ratio curve;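 also: potency is read from the fitted curve at half-maximal effect; % of control where 0% means no effect; nearly all actives have a fitted effect of over 45% in size; -100% = wells without RanGTP and RCC1; the record marks most hits as doubtful in a second field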
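Rango FRET biosensor (snurportin-1 IBB flanked by N-terminal EYFP and C-terminal CFP10) at 0.1 uM, with 0.25 uM importin beta in PBS, 1mM DTT, 0.02% Tween-20, 0.1% BSA. 0.6 uM Ran, 2mM GTP and 0.2 uM RCC1 were then added for 45 min at room temperature. Inhibition read as loss of FRET rise.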
Starred values were filed as active, the others as inactive; ? = inconclusive; nt = not tested or not shown; & = joins results of further samples; [ ] = another dose, or the depositor's remark.

smiles	miR-21 reporter	Rango complex inh	Rango release inh	GLA inh pH 4.5
COc1ccc(NC(=O)c2ccc(=O)[nH]c2)cc1S(=O)(=O)N1CCCCC1	0%	nt	nt	5
COc1ccc(C(=O)N2CCCC(N3CCN(c4ccccc4F)CC3)C2)c(OC)n1 (centres undefined)	8%	-5.6%	6%	nt
CCOc1ccc(C(=O)CC(Sc2ccc(C)cc2)C(=O)O)cc1 (centres undefined)	4%	-1.5%	4%	-1
CCCCNC(=O)Nc1nc2ccc(CC)cc2s1	-37%	-0.2%	3%	2
O=C(NCCC(=O)N1CCCC(C(F)(F)F)C1)c1ccc(Br)cc1 (centres undefined)	0%	-1.1%	4%	nt
CCOc1ccc(/C=N/Nc2ccccn2)cc1OC	-68%	3.3%	8%	-4
COCc1cc(C)nc(NCCO)c1C#N	-2%	?	-9%	10
CCOc1ccc(CN2CCNC(=O)C2CC(=O)NCc2csc(C)n2)cc1 (centres undefined)	4%	?	9%	nt
COc1cccc(CSc2nc3ccncc3[nH]2)c1	-7%	-2.7%	7%	-2
O=C1CC(NCCC2=CCCCC2)C(=O)N1c1cccc(Cl)c1Cl (centres undefined)	-4%	nt	nt	-19
CCOc1cc(/C=N/NC(=O)C(=O)NC2CC2)cc(Br)c1O	-10%	0.3%	-4%	-10
Cc1ccc(S(=O)(=O)N2CCC(C(=O)OCC(=O)Nc3cc(S(C)(=O)=O)ccc3Cl)CC2)cc1C	-1%	1.5%	-19%	nt
C/C(Cn1nc([N+](=O)[O-])cc1C)=N\NC(=O)c1ccc(C(C)(C)C)cc1	-7%	6.4%	4%	-2
CN(C)NC(=S)Nc1ccc(Cl)cc1	-6%	0.6%	-13%	4
O=C(CN1C(=O)NC2(CCCCC2)C1=O)Nc1cc(C(F)(F)F)ccc1N1CCCC1	nt	-0.3%	24%	nt
Cc1nc(NC(=O)/C=C/c2ccccc2)sc1C(=O)Nc1ccccc1Cl	-23%	0.6%	-12%	4
O=C1OC2(CCCCC2)OC(=O)C1=CNc1nccs1	-3%	?	-14%	4
CC(=O)N1CCN(c2ccc(NC(=O)C(c3ccccc3)c3ccccc3)cc2)CC1	2%	2.2%	9%	nt
Cc1cccc2cc(CN(Cc3nnnn3C3CCCCC3)C3CCCC3)c3nnnn3c12	-4%	0.1%	0%	-26
COc1cc(/C=N/Nc2nn3cnnc3c3ccccc23)ccc1O	-5%	5.2%	-11%	-15
COc1ccc(OC(=O)c2cccc([N+](=O)[O-])c2)c(C(=O)/C=C/c2cccs2)c1	-18%	-1.3%	-2%	-9
Cc1cc(NC(=O)CN2C(=O)NC(CC(C)C)C2=O)ccc1Br (centres undefined)	nt	-0.4%	-15%	nt
CCCCCC(=O)Nc1cccc(C2=NOC3(C2)C[C@H](C(N)=O)N(C(=O)c2ccccc2)C3)c1 (some centres undefined)	7%	-3.7%	12%	-2
NC(=O)c1ccc2c(c1)OCCO2	-2%	-3.0%	14%	2
CCCC(C(=O)NCc1ccco1)N(C(=O)CNS(=O)(=O)c1ccccc1)c1ccccc1OC (centres undefined)	3%	-1.1%	0%	2
O=C(NCc1ccc(Cl)cc1)C1CCN(S(=O)(=O)c2ccc(N3CCCC3=O)cc2)CC1	15%	0.3%	-20%	nt
NC(=O)C1CCN(c2nc(-c3cccs3)cs2)CC1	nt	-2.1%	17%	nt
Cc1ccc(S(=O)(=O)c2cnc3cc(C)nn3c2N)cc1	4%	1.9%	4%	3
COc1ccc(N(C)S(=O)(=O)c2cccc(C(=O)N3CCN(S(=O)(=O)c4ccc(C)cc4)CC3)c2)cc1	12%	-0.7%	3%	nt
COc1cc(OC)cc(C(=O)NCCS(=O)(=O)N2CCN(Cc3ccccc3)CC2)c1	nt	-0.1%	-1%	nt
CCOc1ccc(CNC(=O)CCCn2nc(C)c3c(C)n(-c4ccc(C)cc4)nc3c2=O)cc1	0%&-1%	0.4%	-1%	nt
CCOC(=O)N1CCC(NCCNC(=O)c2ccccc2)CC1	-1%	-2.0%&-1.0%	10%&-2%	0
O=[N+]([O-])/C=C/c1cn(Cc2ccccc2)c2ccccc12	?	0.3%	0%	-4
O=C(O)C1=C[C@H](c2cccs2)C[C@H](OCc2ccc(CO)cc2)O1	-2%	4.9%	-4%	-1
COc1ccc(/C=C2\C(=O)OCc3cc(OC)c(OC)cc32)cc1OC	-21%	-4.9%	-3%	-8
Cc1cccc(-c2nc(CS(=O)CC(=O)N3CC(C)CC(C)C3)c(C)o2)c1 (centres undefined)	-2%	1.2%	13%	nt
Cc1nnc(SCC(=O)c2ccc(Br)cc2)s1	-12%	-0.2%	23%	8
Cc1ccc(C(=O)N2CCCC(C(F)(F)F)C2)cc1S(=O)(=O)N1CCOCC1 (centres undefined)	nt	6.3%	-8%	nt
CCOC(=O)c1ccc(N2CCOCC2)c(NC(=O)c2nccnc2C(=O)O)c1	-2%	-1.7%	-17%	nt
CSc1nnc(-c2cnccn2)n1C	-3%	-6.4%	-15%	1

Shown with values under each structure: five of the compounds above.
Results follow in this order: miR-21 reporter	Rango complex inh	Rango release inh	GLA inh pH 4.5
> COc1cc(OC)cc(C(=O)NCCS(=O)(=O)N2CCN(Cc3ccccc3)CC2)c1
  nt	-0.1%	-1%	nt
> NC(=O)c1ccc2c(c1)OCCO2
  -2%	-3.0%	14%	2
> CCOC(=O)N1CCC(NCCNC(=O)c2ccccc2)CC1
  -1%	-2.0%&-1.0%	10%&-2%	0
> O=C(NCc1ccc(Cl)cc1)C1CCN(S(=O)(=O)c2ccc(N3CCCC3=O)cc2)CC1
  15%	0.3%	-20%	nt
> COc1ccc(OC(=O)c2cccc([N+](=O)[O-])c2)c(C(=O)/C=C/c2cccs2)c1
  -18%	-1.3%	-2%	-9

Some of the entries so far, with two lines to a compound.
Values run as follows: miR-21 reporter, Rango complex inh, Rango release inh, GLA inh pH 4.5
Cc1cccc(-c2nc(CS(=O)CC(=O)N3CC(C)CC(C)C3)c(C)o2)c1 (centres undefined)
 : -2%, 1.2%, 13%, nt
Cc1nnc(SCC(=O)c2ccc(Br)cc2)s1
 : -12%, -0.2%, 23%, 8
Cc1ccc(C(=O)N2CCCC(C(F)(F)F)C2)cc1S(=O)(=O)N1CCOCC1 (centres undefined)
 : nt, 6.3%, -8%, nt

The list goes on.
smiles	miR-21 reporter	Rango complex inh	Rango release inh	GLA inh pH 4.5
CC(C)(C)OC(=O)NCCCC[C@@H](C(=O)N1CCN(C(=O)OC(C)(C)C)CC1)n1cc(CCC(=O)O)nn1	6%	4.8%	9%	6
COc1ccc(CCNC(=O)c2cc(C(=O)c3cc(C)ccc3O)cn(CCc3ccc(OC)cc3)c2=O)cc1	30%	-1.5%	-7%	-5
COCCn1c(=O)c2ccccc2c2ccccc2c1=O	-3%	6.3%	17%	5
Cc1cc(C(=O)CSc2nnc3c(Cl)cc(Cl)cn23)c(C)n1C	2%	-6.4%	-11%	-2
O=C(CN1C(=O)C(=O)N(Cc2ccco2)C1=O)Nc1ccccc1	nt	2.1%	-1%	nt
O=C(CN1CCN(Cc2ccc3c(c2)OCO3)CC1)Nc1ccc2c(c1)OCCO2	-10%	?	12%	2
c1csc(-c2nc3ccccc3[nH]2)c1	-38%	7.0%	6%	-1
COc1ccc(NC(=S)NCCNC(C)=O)cc1	-2%	2.4%	0%	-6
CCC1(C)Cc2nc3[nH]c(=S)n(-c4ccccc4)c(=O)c3cc2CO1 (centres undefined)	-2%	4.3%	16%	-2
CCCN(CC1CC1)C(=O)COC(=O)c1ccc(CNS(=O)(=O)c2ccc(F)c(Cl)c2)cc1	0%	3.5%	-1%	-6
C=CCc1c(C)nc2ccc(C(=O)OCC)cc2c1Cl	-17%	-0.3%	-6%	11
CCNc1nc(NC(C)C)nc(Oc2ccc(OCCOc3ccccc3)nn2)n1	-10%	4.3%	0%	0
COc1ccc(NC(=O)c2cccc(Cl)c2)c[n+]1[O-]	0%	2.1%	0%	nt
CCOc1ccccc1C(=O)NC1CC2CCCC(C1)N2C1CC1 (centres undefined)	0%	-2.7%	7%	6
O=C(C1=C(O)C(=O)N(CCN2CCOCC2)C1c1ccc(F)cc1)c1cccs1 (centres undefined)	0%	0.9%	-10%	nt
CC1CCCCC1NC(=O)CCNS(=O)(=O)c1ccc2c(c1)CCC(=O)N2 (centres undefined)	-6%	?	?	nt
C(=NN1CCCCCC1)c1ccccc1	nt	0.7%	2%	nt
Cc1c(S(=O)(=O)N2CCCC(C(=O)O)C2)cnn1C (centres undefined)	-3%	-6.3%	0%	3[21.1 µM]
COc1ccc(C(=O)CN2CCN(S(=O)(=O)c3cccc([N+](=O)[O-])c3)CC2)cc1OC	2%	-2.8%	5%	-2
COC(=O)COc1ccc(C2NC(=O)NC(c3ccccc3)=C2C(C)=O)cc1Br (centres undefined)	-4%	2.7%	17%	nt
COC(=O)C1(C(=O)OC)C(C(=O)c2ccccc2)C1c1ccccc1 (centres undefined)	nt	-6.0%	-5%	nt
COc1cc([N+](=O)[O-])ccc1NC(=O)CN1CCCC1	-1%	0.0%	-8%	0
COc1ccc(C(=O)CCC(=O)Nc2cccnc2)cc1OC	-2%	-0.1%	3%	nt
CS(=O)(=O)N1c2cccc3cccc(c23)S1(=O)=O	-4%	1.4%	1%	nt
Cc1nn(C2CCS(=O)(=O)C2)c(Cl)c1/C=C/C(=O)OCC(N)=O (centres undefined)	0%	0.1%	-9%	-4
CC(=O)c1cccc(N(C(=O)c2ccco2)C(C(=O)NC2CCCC2)c2ccncc2)c1 (centres undefined)	1%	-1.4%	4%	0
C/C(=N\NC(=O)c1cc(-c2ccc(C)s2)nc2ccccc12)c1cccnc1	-11%	?	-12%	nt
Cc1sc2nc3ccc(NCc4ccco4)nn3c(=O)c2c1C	-18%	?	?	-10
O=C(Nc1ccc(S(=O)(=O)Nc2nccs2)cc1)c1cc(-c2ccccc2)nc2ccccc12	14%	0.1%	0%	-10
O=[N+]([O-])c1cccc(-c2nnc(-c3ccccc3)o2)c1	-42%	-0.6%	12%	11
COC(=O)c1cc(Sc2cccc(Cl)c2Cl)ccn1	1%	1.6%	1%	10
COc1ccccc1NCc1nnc(-c2ccccc2)o1	-34%	-2.7%	21%	nt
CN(C)S(=O)(=O)c1cccc(NC(=S)Nc2cccc3cnccc23)c1	?	?	-22%	-12
Cc1ccccc1N1C(=O)C(Cc2ccc(F)cc2)S/C1=C(\C#N)C(N)=O (centres undefined)	-1%	11%	-18%	3
CCOC(=O)C1=C(O)c2ccccc2C(=O)/C1=C\c1ccc(CC)cc1	?	?	?	-4
CC(Sc1nnc(C2CC2)n1C1CC1)C(=O)c1ccc(F)cc1 (centres undefined)	nt	3.7%	21%	nt
O=C(NN=C1CCCC1)c1ccc(Cl)cc1	-11%	0.6%	-11%	nt
CC(=O)NC(C)c1nc2ccccc2n1C(C)C (centres undefined)	-6%	-3.1%	-7%	-2
O=C(NCc1cccnc1)c1ccccc1NS(=O)(=O)c1ccccc1	-6%	-1.7%	6%	nt
COc1cc2c(cc1OC)C(Cc1cc(OC)c(OC)cc1[N+](=O)[O-])=NCC2	nt	-4.0%	-1%	nt
CCOc1ccc(NC(=O)c2ccc3nccnc3c2)cc1	-29%	6.8%	11%	7
CS(=O)(=O)C1=C(O)C(=O)N(c2ccccc2)C1c1ccccc1 (centres undefined)	-11%	0.0%	8%	2
O=C(CN1C(=O)NC(Cc2c[nH]c3ccccc23)C1=O)Nc1ccc(F)cc1F (centres undefined)	nt	0.7%	16%	nt

Only part of the results is shown; count on the stated rates, not on these rows.
